Bioassay records (PubChem)
Hedgehog cleavage: Drosophila hedgehog isoform A inhibitors, primary screen, biochemical, plate reader, single concentration (AID 588832). Biochemical plate reader assay, Hedgehog inhibition; hits give high values. inhibition, % at 30.3 µM. 8,000 tested, under 10 active; in the data active = inhibition from about 57%;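 also: 0% = neutral control wells and 100% = positive control wells; cholesterol-driven self-cleavage of fly hedgehog protein by fluorescence polarization; read one hour after cholesterol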
* marks the source's active call; other numbers are inactive results; & = joins results of further samples. Some of the compounds tested, so the mix of outcomes need not match the whole.

`O=c1[nH]cnc2c1ncn2C1OCC(O)C(O)C1O` (stereo unspecified) gave Hedgehog cleavage 10.8.
`CCc1cc(=O)oc2cc(C)cc(OCC(=O)NCCc3c[nH]c4ccccc34)c12` gave Hedgehog cleavage 1.7.
`Cc1[nH]c2ccccc2c1SCC(=O)N1CCOCC1` gave Hedgehog cleavage 11.5.
For COc1ccccc1N1CCN(C(c2cccs2)C(C)NC(=O)c2cccnc2)CC1 (stereo unspecified) the results were Hedgehog cleavage 5.3.
For CCCc1nc(SCC(=O)Nc2ccccc2)c2c(=O)n(C)c(=O)n(C)c2n1 the results were Hedgehog cleavage 2.7.
Screening COc1cccc(C(c2sc3nc(C)nn3c2O)N2CCc3ccccc3C2)c1 (stereo unspecified) returned Hedgehog cleavage 5.1.
For COC(=O)c1cc(S(=O)(=O)NCc2cccc(OC)c2)cn1C the results were Hedgehog cleavage 25.0.
`COc1ccc(-c2cc(=O)c3ccc(O)cc3o2)cc1` gave Hedgehog cleavage 3.6.
COc1ccc(CCNc2oc(-c3ccc(C)cc3)nc2C#N)cc1OC was read as Hedgehog cleavage 16.7.
For Cc1cc(C)c2nc(NNC(=O)c3ccc(S(=O)(=O)N4CCCC(C)C4)cc3)sc2c1 (stereo unspecified) the results were Hedgehog cleavage 6.4.
`Cc1cc(C)c(S(=O)(=O)Nc2ccc(O)c(Sc3ncn[nH]3)c2)cc1C` gave Hedgehog cleavage 10.5.
`O=C(NC1CCN(Cc2ccccc2)CC1)C1CCN(c2nnc(-n3cccc3)s2)CC1` gave Hedgehog cleavage 11.1.
`O=C(c1cc(-c2ccccc2O)on1)N1CCCC1` gave Hedgehog cleavage 7.7.
Screening COc1cc2cccc(OC)c(=O)c2c(OC)c1OC returned Hedgehog cleavage -1.8.
Screening Cc1cccc(NC(=S)NCc2ccc3c(c2)cc(C)n3C)c1C returned Hedgehog cleavage 8.7.
Cc1ccc(Cl)cc1N1CCN(C(=O)Cn2ncn3cccc3c2=O)CC1 was read as Hedgehog cleavage 1.8.
`COc1ccccc1CNC(=O)[C@H](CCSC)NC(=O)[C@@H]1Cc2ccccc2CN1` gave Hedgehog cleavage 0.0.
Cc1cc(F)ccc1NC(=O)c1cc(S(=O)(=O)N2CCc3ccccc32)cn1C was read as Hedgehog cleavage 3.6.
`CCOC(=O)Nc1ccc2c(c1)N(C(=O)OCCN(C)C)c1ccccc1CC2` gave Hedgehog cleavage 20.8&10.0.
Screening COc1ccccc1CNC(=O)C1CCCN(S(=O)(=O)c2cccc3cccnc23)C1 (stereo unspecified) returned Hedgehog cleavage 8.3.
`COC(=O)C1=COC(C)C2CN3CCc4c([nH]c5cc(OC)c(OC)cc45)C3CC12` (stereo unspecified) gave Hedgehog cleavage -8.7.
For COc1ccc(CNc2oc(-c3ccccc3)nc2C#N)cc1 the results were Hedgehog cleavage 20.8.
COc1ccc2oc(-c3ccccc3)cc(=O)c2c1 was read as Hedgehog cleavage 0.0.
`COc1ccc(S(=O)(=O)Cc2ccc(C(=O)NC(C)C)o2)cc1` gave Hedgehog cleavage 15.4.
Screening CCC(C)Sc1nc2c(c(=O)[nH]c(=O)n2C)n1Cc1ccccc1Cl (stereo unspecified) returned Hedgehog cleavage -7.1.
For COc1ccc(C2=NS(=O)(=O)N(C)C(C(=O)NCc3ccccc3)=C2)cc1OC the results were Hedgehog cleavage 8.4.
Cc1cccc(Cn2c(SCC(=O)Nc3ccccc3)nc3c2c(=O)[nH]c(=O)n3C)c1 was read as Hedgehog cleavage 4.4.
`CCOC(=O)C1CCCN(C(=O)Cn2nc(CC)n3c(cc4sccc43)c2=O)C1` (stereo unspecified) gave Hedgehog cleavage -0.9.
`CCOC(=O)C1CCN(S(=O)(=O)c2ccc3c(c2)CC(=O)N3)CC1` gave Hedgehog cleavage 6.8.
Screening C=CCSc1nc2c(c(=O)[nH]1)C(C(C)C)C(C#N)=C(N)O2 (stereo unspecified) returned Hedgehog cleavage 12.5.
Screening C[C@@H]1[C@H]2[C@@H](O[C@@H]3O[C@H](CO)[C@@H](O)[C@H](O)[C@H]3O)OC=C(C(=O)O)[C@H]2C[C@@H]1O returned Hedgehog cleavage 3.3.
`COc1ccc(OC)c2c1sc(=NC(=O)C(C)(C)C)n2C` gave Hedgehog cleavage 4.6.
COc1ccc(N(CC(=O)Nc2nccs2)S(=O)(=O)c2c(C)nn(C)c2C)cc1 was read as Hedgehog cleavage 0.0.
`O=C(COc1ccc2ccccc2c1)NCCn1ccc2ccccc21` gave Hedgehog cleavage 10.1.
For Cc1cccc(CCNS(=O)(=O)c2cc3c(cc2C)NC(=O)CO3)c1 the results were Hedgehog cleavage 5.2.
COc1ccc(C2C(C(N)=O)=C(C)Nc3nc(-c4ccccc4)nn32)cc1OC (stereo unspecified) was read as Hedgehog cleavage 17.4.
For Cc1cc2cc(CNC(=O)c3ccc(S(=O)(=O)N4CCCC4)cc3)ccc2n1C the results were Hedgehog cleavage 8.9.
For Cc1nc2sc(C(c3ccccc3)N3CCN(C)CC3)c(O)n2n1 (stereo unspecified) the results were Hedgehog cleavage 14.5.
Screening COC(=O)C1(C)NCCc2c1[nH]c1ccccc21 (stereo unspecified) returned Hedgehog cleavage 5.2.
Cn1c(=O)c2c(nc(CN3CCN(CCO)CC3)n2Cc2ccccc2Cl)n(C)c1=O was read as Hedgehog cleavage -1.9.
O=C(O)c1ccc(-c2ccc(O)c(F)c2)cc1 was read as Hedgehog cleavage 8.5.
Screening O=C(CSc1nnc(COc2ccc(Cl)cc2)o1)N1CCN(c2ccccc2)CC1 returned Hedgehog cleavage 15.4.
O=C(CCC(=O)n1ncc2ccccc21)NCc1ccccc1Cl was read as Hedgehog cleavage 5.2.
`O=C(COc1cc2oc(=O)c3c(c2cc1Cl)CCCC3)N1C[C@H]2C[C@@H](C1)c1cccc(=O)n1C2` gave Hedgehog cleavage 6.5.
`CCOc1ccc(NC(=O)[C@@H]2CCC(=O)N2C2OC(=O)c3ccccc32)cc1` (stereo partly specified) gave Hedgehog cleavage -3.3.
`O=C(CCC(=O)N1CCSc2ccccc21)NCc1ccccc1` gave Hedgehog cleavage 5.0.
For CCn1c(=NC(=O)c2cccc(N3C(=O)CCC3=O)c2)sc2c(OC)ccc(OC)c21 the results were Hedgehog cleavage 4.6.
CCCc1cc(C(=O)Nc2cc(OC)c(Cl)cc2OC)no1 was read as Hedgehog cleavage 3.6.
For O=C(Cn1cc(C(=O)c2cccs2)c2ccccc21)NCc1ccc2c(c1)OCO2 the results were Hedgehog cleavage 0.0.
CCOC(=O)N1CCN(C(=O)c2cc3c(=O)n(C)c4ccccc4c3n2C)CC1 was read as Hedgehog cleavage 17.4.
For COc1ccc(N(C(=O)c2cccnc2)S(=O)(=O)c2ccc(F)cc2)cc1 the results were Hedgehog cleavage 8.3.
Cc1ccn2cc(CCNS(=O)(=O)c3ccc(F)c(C(F)(F)F)c3)nc2c1 was read as Hedgehog cleavage 5.1.
For Cc1ccc(C2CC(c3ccc(Cl)cc3)n3nc(N)nc3N2)cc1 (stereo unspecified) the results were Hedgehog cleavage 16.7.
Screening Cc1ccc(NC(=O)CSc2nnc(Cn3c(=O)sc4ccccc43)n2C)cc1Cl returned Hedgehog cleavage -17.4.
Screening COc1cc(CCC(O)CC(=O)CCc2ccccc2)ccc1O (stereo unspecified) returned Hedgehog cleavage 10.3.
`O=C(CSc1oc(-c2cccs2)nc1S(=O)(=O)c1ccc(F)cc1)NCC1CCCO1` (stereo unspecified) gave Hedgehog cleavage 3.4.
For COc1ccc(OCc2nnc3n2N=C(c2ccc(Br)cc2)CS3)cc1 the results were Hedgehog cleavage 5.0.
For COc1ccc(CCNC(=O)COc2cc(O)c3c(c2)OC(C)(C)CC3=O)cc1 the results were Hedgehog cleavage 8.6.
For CCCCN(CCO)CCCC the results were Hedgehog cleavage 3.6.
Screening O=C(c1ccc(NC2=NC3CS(=O)(=O)CC3S2)cc1)N1CCN(c2ccc(F)cc2)CC1 (stereo unspecified) returned Hedgehog cleavage 3.8.
For O=C(CCC(=O)N1CCSc2ccccc21)Nc1ccc(F)cc1 the results were Hedgehog cleavage 7.0.
For O=C1C2CCCN2C(c2ccccc2)N1c1ccc(F)cc1 (stereo unspecified) the results were Hedgehog cleavage 8.3.
COc1ccccc1CNC(=O)[C@H](C)NC(=O)C1CCN(C(=O)[C@@H](N)C(C)C)CC1 was read as Hedgehog cleavage 8.2.
CCn1c(COc2cccc3cccnc23)nnc1SCC(=O)O was read as Hedgehog cleavage 12.5.
Screening CC(C)OCCCNC(=O)c1cc2c(=O)n(C)c3ccccc3c2n1C returned Hedgehog cleavage 8.7.
Screening O=C1c2ccccc2C(Nc2ccc(S(=O)(=O)N3CCCCC3)cc2)N1c1ccccn1 (stereo unspecified) returned Hedgehog cleavage 10.8.
Screening Cn1c(Cn2c(=O)sc3ccccc32)nnc1SCC(=O)N1CCc2ccccc21 returned Hedgehog cleavage 15.4.
For CSCC[C@H](NC(=O)[C@H](Cc1ccccc1)n1c(=O)[nH]c2ccccc2c1=O)C(=O)N[C@@H](Cc1ccccc1)C(=O)O the results were Hedgehog cleavage 6.9.
`N#Cc1nc(COc2ccc(Br)cc2)oc1N1CCCCCC1` gave Hedgehog cleavage -4.5.
`COc1c2c(c(C)c3c1C(=O)OC3)O[C@@]1(C)CC[C@@]3(O)C(C)(C)OC(=O)CC[C@]3(C)[C@H]1C2` gave Hedgehog cleavage -1.8.
`COc1cc(-c2nc(C(=O)NCC3CCCO3)cc3c2[nH]c2ccccc23)cc(OC)c1OC` (stereo unspecified) gave Hedgehog cleavage 0.0.
`CCc1ccc(NC(=O)CSc2nnc(Cn3c(=O)sc4ccccc43)n2C)cc1` gave Hedgehog cleavage 16.7.
Cc1cc(NC(=O)CS(=O)(=O)c2cn(Cc3ccc(F)cc3)c3ccccc23)no1 was read as Hedgehog cleavage 5.4.
For Nc1nonc1-n1nnc(C(=O)N/N=C/c2cccc(F)c2)c1CN1CCCC1 the results were Hedgehog cleavage -0.1.
COc1ccc(C2CC(=O)N3CN(c4ccccc4F)CSC3=C2C#N)cc1OC (stereo unspecified) was read as Hedgehog cleavage -3.5.
`O=C(O)C1CCC(=O)N1C1c2ccccc2Oc2ccccc21` (stereo unspecified) gave Hedgehog cleavage 16.7.
`Cc1cccc(CNC(=O)C2CCCN(c3nn4c(=O)cc(C)nc4s3)C2)c1` (stereo unspecified) gave Hedgehog cleavage 3.4.
Screening CCOc1ccc(NC(=O)CS(=O)(=O)c2cn(C)c3ccccc23)cc1 returned Hedgehog cleavage 8.0.
Screening COc1ccc(CCNC(=O)c2cc(S(=O)(=O)N3CCCC3)cn2C)cc1OC returned Hedgehog cleavage 6.8.
For O=C(CN1C(=O)c2cccnc2Oc2ccc(Cl)cc21)Nc1ccc(F)cc1 the results were Hedgehog cleavage 12.9.
Screening CCOc1ccc(NC(=O)c2cccc(NC3=NC4CS(=O)(=O)CC4S3)c2)cc1 (stereo unspecified) returned Hedgehog cleavage 5.1.
For COc1cc(NC(=O)C2CCCN2C(=O)C2CCC(C)CC2)cc(OC)c1OC (stereo unspecified) the results were Hedgehog cleavage 16.7.
For CNCC(O)C(O)C(O)C(O)CO (stereo unspecified) the results were Hedgehog cleavage 5.4.
Screening Cc1cccn2cc(CCNS(=O)(=O)c3ccc4c(c3)OCCO4)nc12 returned Hedgehog cleavage 5.4.

Compounds shown so far that contain an NH in an aromatic ring, in the order listed:
`O=c1[nH]cnc2c1ncn2C1OCC(O)C(O)C1O` (stereo unspecified) gave Hedgehog cleavage 10.8.
`CCc1cc(=O)oc2cc(C)cc(OCC(=O)NCCc3c[nH]c4ccccc34)c12` gave Hedgehog cleavage 1.7.
`Cc1[nH]c2ccccc2c1SCC(=O)N1CCOCC1` gave Hedgehog cleavage 11.5.
`Cc1cc(C)c(S(=O)(=O)Nc2ccc(O)c(Sc3ncn[nH]3)c2)cc1C` gave Hedgehog cleavage 10.5.
`COC(=O)C1=COC(C)C2CN3CCc4c([nH]c5cc(OC)c(OC)cc45)C3CC12` (stereo unspecified) gave Hedgehog cleavage -8.7.
Screening CCC(C)Sc1nc2c(c(=O)[nH]c(=O)n2C)n1Cc1ccccc1Cl (stereo unspecified) returned Hedgehog cleavage -7.1.
Cc1cccc(Cn2c(SCC(=O)Nc3ccccc3)nc3c2c(=O)[nH]c(=O)n3C)c1 was read as Hedgehog cleavage 4.4.
Screening C=CCSc1nc2c(c(=O)[nH]1)C(C(C)C)C(C#N)=C(N)O2 (stereo unspecified) returned Hedgehog cleavage 12.5.
Screening COC(=O)C1(C)NCCc2c1[nH]c1ccccc21 (stereo unspecified) returned Hedgehog cleavage 5.2.
For CSCC[C@H](NC(=O)[C@H](Cc1ccccc1)n1c(=O)[nH]c2ccccc2c1=O)C(=O)N[C@@H](Cc1ccccc1)C(=O)O the results were Hedgehog cleavage 6.9.
`COc1cc(-c2nc(C(=O)NCC3CCCO3)cc3c2[nH]c2ccccc23)cc(OC)c1OC` (stereo unspecified) gave Hedgehog cleavage 0.0.

(further entries)
For COc1ccc(C)c2sc(=NC(=O)c3ccccc3)n(C)c12 the results were Hedgehog cleavage 4.4.
For Cc1ccc(C2=NC3(CCCC3)N=C2SCC(=O)Nc2ccc3c(c2)OCCO3)cc1 the results were Hedgehog cleavage 19.2.
COc1ccccc1N1CCN(S(=O)(=O)c2ccc3c(c2)NC(=O)C(C)C(=O)N3)CC1 (stereo unspecified) was read as Hedgehog cleavage 1.7.
For CC(C)(C)c1ccc(C(=O)N2CCN(c3nc4ccccc4o3)CC2)cc1 the results were Hedgehog cleavage 5.1.
Screening COc1cccc(N2C(=O)C3CCCN3C2c2ccc(Cl)cc2)c1 (stereo unspecified) returned Hedgehog cleavage 10.0.
For CCCCN(Cc1ccco1)C(=O)c1cc2c(=O)[nH]c3ccc(C)cc3c2s1 the results were Hedgehog cleavage 9.5.
Screening CCOc1ccc(Cn2nnc(C(=O)NCc3ccccc3)c2N)cc1 returned Hedgehog cleavage 10.5.
For CC(=O)c1c(O)cc(O)c(C(C)=O)c1O the results were Hedgehog cleavage 6.9.
Screening COc1cccc(N2CCN(C(=O)c3ccc(CSc4nc5ccncc5[nH]4)cc3)CC2)c1 returned Hedgehog cleavage 15.0.
O=c1c(OC2OC(CO)C(O)C(O)C2OC2OC(CO)C(O)C(O)C2O)c(-c2ccc(O)cc2)oc2cc(O)cc(O)c12 (stereo unspecified) was read as Hedgehog cleavage 12.1.
